PK Bst = alters activity of Bacillus stearothermophilus pyruvate kinase | partly purified Bacillus stearothermophilus pyruvate kinase, luminescence ATP production; ribose 5-phosphate activator present at AC10 | Potency, µM | 51,000 compounds, 1.2% hits | AID 361; in the data active means potency below about 11 µM; inconclusive means mostly about 12 µM to 25 µM; inactive means weaker than that;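 the screen sought inhibitors and activators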;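 further: potency means the concentration at half of the fitted maximal effect; scaled between full activation by ribose 5 phosphate and full inhibition by luteolin; about four in five hits inhibit and the cells do not say which; series up to 57 µM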
TsaE inh = inhibitors of E. coli YjeE (TsaE); purified YjeE, fluorescence polarisation of a bound ADP probe; Potency, µM; 71,000 compounds, 0.05% hits; AID 605; P0AF67; active = well fitted falling curve; inconclusive = weaker or top-dose-only fall, or a rising curve; inactive = flat or poorly fitted curve;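 further: top concentration of the series not given in the record; excess ADP was the control for the full effect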
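Fluorescence polarization of a BODIPY Texas Red–ADP probe (2 uM) bound to purified YjeE (10 uM) was read after 15 min room-temperature incubation with compounds. Loss of polarization marks inhibitors; ADP serves as titrated control.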
* marks the source's active call; other numbers are inactive results; i = inactive; ? = inconclusive; . = no result given.

PK Bst | TsaE inh | Molecule
>57 | i | Cc1cc(O)cc(=O)n1Cc1ccco1
>57 | i | CC(C)(C)OC(=O)NCCCCCc1nnc(SCC(N)=O)o1
>57 | i | Cc1cc(=O)n2c(n1)OC(CO)C2 (centres undefined)
>57 | i | COC(=O)c1ccc(NC(=O)c2ccc(CN3CCOCC3)cc2)cc1
>57 | i | CCn1c(=O)cc(SCC(=O)NCCCN2CCN(c3ccccc3F)CC2)c2ccccc21
. | i | CCc1c2c(nc3ccccc13)OC(C)C2 (centres undefined)
. | i | Cn1cc(-c2nc3cnc(N4CCOCC4)nc3n(CCC#N)c2=O)c2ccccc21
. | i | Cc1n[nH]c(=O)nc1NCc1ccccc1
>57 | i | CCCC(=O)Nc1cc(-c2nn(C)c(=O)c3ccccc23)ccc1OC
. | i | CC1CC(C)CN(Cc2nc3c(c(=O)n(C)c(=O)n3C)n2Cc2ccccc2Cl)C1 (centres undefined)
>57 | i | COC(=O)c1cc(-c2c(C)oc3cc(O)ccc3c2=O)c(C)o1
>57 | i | O=C(NCC(c1cccnc1)N1CCN(c2ccc(F)cc2)CC1)c1ccc(F)cc1 (centres undefined)
>57 | i | O=C(COc1ccccc1)Nc1ccc(S(=O)(=O)NCc2ccco2)cc1
>57 | i | CCn1c(SCC(=O)Nc2cc(NC(C)=O)ccc2OC)nnc1-c1ccccn1
. | i | Cc1cc(C)c2cc(CN(CCO)C(=O)Nc3ccc(Cl)cc3)c(=O)[nH]c2c1

PK Bst | TsaE inh | Molecule
. | i | O=S(=O)(Cc1ccccc1)N1CCCC1
>57 | i | CCOC(=O)CSc1nnc(CNC(=O)c2cc(OC)c(OC)c(OC)c2)n1C
. | i | CNCC[C@H](Oc1ccccc1OC)c1ccccc1
>57 | i | COc1cc(Cl)c(C)cc1NC(=O)CSC
. | i | O=C(O)c1cccc(C(=O)O)c1S(=O)Cc1ccccc1 (centres undefined)
>57 | i | COc1ccccc1OCc1ccc(C(=O)Nc2ccncc2)o1
. | i | N#C/C(=C1/CCCCCN1)c1nnc2n1CCCCC2
>57 | i | CC(=O)N(CC1CCCO1)C1(C(=O)NC2CCCC2)CCCCC1 (centres undefined)
>57 | i | CCCCC(=O)N(c1ccc(C)c(C)c1)C1C=CS(=O)(=O)C1 (centres undefined)
>57 | i | Cn1c(=O)[nH]c(=O)c2c1nc(N1CCCCCC1)n2CCSc1nc2ccccc2[nH]1
>26 | . | Cc1nnc2n(Cc3ccccc3)c(=O)c3c4c(sc3n12)CN(Cc1ccccc1)CC4
>57 | i | CCOC(=O)CSc1nc2cc(C(=O)NCC3CCCO3)ccc2c(=O)n1Cc1ccco1 (centres undefined)
>57 | i | COc1ccc(N2CCN(CCNC(=O)CCS(=O)(=O)c3cccc4nsnc34)CC2)cc1
>57 | i | CCC(=O)N1CCN(c2ccc(NC(=O)c3cc4ccccc4o3)cc2Cl)CC1
>57 | i | CCc1ccccc1N(CC)C(=O)c1cn(CC)c(=O)c2cc(OC)c(OC)cc12

PK Bst | TsaE inh | Molecule
>57 | i | O=C(NCc1ccc2c(c1)OCO2)c1cccs1
>57 | i | Cc1ccc(S(=O)(=O)NCC(=O)N(CC(=O)NCc2ccccc2)CC2CCCO2)cc1 (centres undefined)
>26 | . | CCCCCOc1ccccc1C(=O)NCCCC(=O)O
>57 | i | CC(C)Nc1nc(NC(C)C)nc(Oc2ccc(/C=N/O)cc2)n1
>57 | i | Cc1cccc(C(=O)NC2CCN(CC(=O)N3CCOCC3)CC2)c1
. | i | O=C1C=C(Nc2nc(C(=O)O)cc(=O)[nH]2)c2ccccc2C1=O
. | i | CC(=O)NC(CCS(C)(=O)=O)C(=O)Nc1cccc2ccccc12 (centres undefined)
. | i | CN(C)c1ccc(-c2cc(NCc3cccnc3)ncn2)cc1
>57 | i | CC(C)C12CN3CC(C(C)C)(CN(C1)C3c1ccc3c(c1)OCO3)C2=O (centres undefined)
>57 | i | O=C(Nc1ccccc1N1CCN(c2ccccc2)CC1)c1cccc(F)c1
>57 | i | CCC(C)[C@H](NC(=O)Nc1cccc(OC)c1)C(=O)OC (some centres undefined)
>57 | i | CCOC(=O)c1ccccc1NC(=O)Cn1cnc2c(cnn2-c2ccc(OC)cc2)c1=O
>57 | i | O=c1/c(=C/c2ccco2)sc2nc(-c3ccccc3Br)nn12
>57 | i | CCn1cc(C(=O)N2CCN(C(=O)c3ccco3)CC2)c2cc(OC)c(OC)cc2c1=O
>57 | i | Cn1c(=O)c2c(ncn2CC(O)CNc2ccc(Br)cc2)n(C)c1=O (centres undefined)

PK Bst | TsaE inh | Molecule
>57 | i | CCC(=O)N1CCN(C(=O)CC)C1c1ccccc1
>57 | i | Cc1cc(C)n2cc(CSC3=NCCS3)nc2n1
>57 | i | Cc1ccc(Nc2nc(N)nc(CN3CCN(c4ccccc4F)CC3)n2)cc1
>57 | i | CS(=O)(=O)N1CCN(CC2CC3C=CC2C3)CC1 (centres undefined)
>11 | . | CC1(C)Cc2c(C#N)c(NCCN3CCOCC3)nc(-c3ccco3)c2CO1
>57 | i | C=CCc1ccccc1OCC(O)CN(C(C)C)C(C)C (centres undefined)
>57 | i | CCOCCn1c(N2CCN(c3ccccc3)CC2)nc2c1c(=O)n(C)c(=O)n2C
. | i | COc1cccc2cc(C(=O)Nc3cccc(C)n3)c(=O)oc12
. | i | CN1CCN(C(=O)c2ccccc2NC(=O)c2cccs2)CC1
>57 | i | S=c1nc(-c2ccccc2)n(CCN2CCOCC2)c2c1CCCC2
>57 | i | O=C(c1ncc[nH]1)c1ccco1
>57 | i | Cc1ccc(-n2c(CSc3nc(C)cc(C)n3)nnc2SCC(=O)NCc2ccco2)cc1
>57 | i | CC(C)CNS(=O)(=O)c1ccc(CCC(=O)O)cc1
>57 | i | CCOc1ccc(CCNC(=O)C2CCCN(S(=O)(=O)c3c(C)n[nH]c3C)C2)cc1OCC (centres undefined)
>57 | i | O=C(CCCc1cccs1)Nc1nc2c(s1)CCCC2

Next part (6 carried over from the part before).
PK Bst | TsaE inh | Molecule
>57 | i | S=c1nc(-c2ccccc2)n(CCN2CCOCC2)c2c1CCCC2
>57 | i | O=C(c1ncc[nH]1)c1ccco1
>57 | i | Cc1ccc(-n2c(CSc3nc(C)cc(C)n3)nnc2SCC(=O)NCc2ccco2)cc1
>57 | i | CC(C)CNS(=O)(=O)c1ccc(CCC(=O)O)cc1
>57 | i | CCOc1ccc(CCNC(=O)C2CCCN(S(=O)(=O)c3c(C)n[nH]c3C)C2)cc1OCC (centres undefined)
>57 | i | O=C(CCCc1cccs1)Nc1nc2c(s1)CCCC2
>57 | i | NC(=O)c1cc(-c2ccccc2)nc(N2CCCCCC2)n1
>57 | i | Cc1ccc(-c2nnc3c4ccccc4c(C)nn23)cc1NC(=O)c1ccco1
>57 | i | COc1ccc(C2C(C(=O)Nc3ccccc3)=C(C)Nc3nc(CCCO)nn32)cc1 (centres undefined)
>57 | i | NC(CC(=O)OC1CCCCC1)C(=O)OC1CCCCC1 (centres undefined)
. | i | O=C(O)c1cc(C(=O)O)nc(C(=O)O)c1
>57 | i | O=S(=O)(Nc1ccc(S(=O)(=O)N2CCCCC2)cc1)c1ccc(Br)s1
. | i | O=C(c1ccc(CS(=O)(=O)c2ccc(Br)cc2)o1)N1CCN(c2ccccn2)CC1
. | i | O=S(=O)(NC1CCCCC1)c1cccc(-c2nnc(-c3ccccc3)o2)c1
>57 | i | COC(=O)CN1C(=O)C2(C(C#N)=C(N)Oc3n[nH]c(-c4cccs4)c32)c2ccccc21 (centres undefined)
>57 | i | CCSc1nc2ccccc2n1CC(=O)OC
>57 | i | O=S(=O)(c1ccc(Nc2ccc3c(c2)OCO3)nc1)N1CCOCC1
>57 | i | c1ccc(OCCCn2nnc(-c3ccc(N4CCOCC4)cc3)n2)cc1
. | i | O=c1[nH]c2ccccc2c2ccccc12
>57 | i | COc1ccc(C)cc1S(=O)(=O)N(CC(=O)N1CCCC1)c1ccccc1
. | i | O=C(NC1CSC/C1=N\O)c1ccccc1 (centres undefined)

PK Bst | TsaE inh | Molecule
>57 | i | CCOC(=O)c1c(-c2cccs2)csc1NC(=O)CSc1ncn[nH]1
>57 | i | CCCOc1ccc(/C(O)=C2\C(=O)C(=O)N(CCCOC)C23C(=O)N(C)c2ccccc23)cc1 (centres undefined)
>57 | i | CC(=O)OC(C(=O)NC1CCCCC1)c1ccc(C)cc1 (centres undefined)
. | i | OCc1cc([C@@H](O)CNCCCCCCOCCCCc2ccccc2)ccc1O
? | i | O=C(c1cc(-c2ccc3c(c2)OCO3)on1)N1CCOCC1
>57 | i | Cc1cc(C(=O)OCC(=O)NCCc2ccccc2)c(C)o1
. | i | O=C(Nc1nc2c(s1)CCCC2)C1COc2ccccc2O1 (centres undefined)
>57 | i | O=C(O)c1oc2ccc(Br)cc2c1-n1cccc1
>57 | i | CCCn1c(=O)c2ccccc2n2c(SCc3nnc(-c4ccccc4Br)o3)nnc12
>57 | i | CCOC(=O)c1ccc(Nc2nc(C)cc(C)c2C#N)cc1
>57 | i | O=C(O)C1CC=CCC1C(=O)Nc1cccc(C(=O)N2CCCCC2)c1 (centres undefined)
. | i | Cc1oc(-c2ccc(Cl)cc2)nc1CN1CCC(C(=O)N2CCN(c3ccccn3)CC2)CC1
>57 | i | CCOC(=O)c1[nH]c2ccc(OC)cc2c1NS(=O)(=O)c1ccc(OC)cc1OC
>57 | i | O=C(CN(CCN1CCOCC1)C(=O)Cn1nnc(-c2ccc(F)cc2)n1)NC1CCCCC1
. | i | CCNCCCNCCCCNCCCNCC

PK Bst | TsaE inh | Molecule
>57 | i | CC1CCCCN1S(=O)(=O)c1ccc(S(=O)(=O)N2CCN(c3ccc(F)cc3)CC2)cc1 (centres undefined)
>57 | i | Cc1sc2ncnc(OCC(=O)N3CCN(S(=O)(=O)c4ccc(Cl)cc4)CC3)c2c1C
>57 | i | Cc1nc(=O)cc(-c2ccccc2)n1-c1ccccc1
>57 | i | CCN(CC)P1(=O)OC(c2cc(OC)c(OC)c(OC)c2)=Nc2c1c(C)nn2-c1ccccc1 (centres undefined)
. | i | C=Cc1ccc(C=C)cc1
>57 | i | CC(Sc1nnnn1C)C(=O)Nc1ccc(Oc2ccccc2)cc1 (centres undefined)
>57 | i | O=C(CSc1cccc(C(F)(F)F)c1)NC(=O)NCc1ccco1
>57 | i | COCCOc1nc2ccccc2nc1C
>57 | i | O=C(O)c1ccc(CNC(=O)c2ccc(Br)o2)cc1
>57 | i | COc1ccc(C(=O)Cn2c(Br)nc3c2c(=O)n(C)c(=O)n3C)cc1
>11 | i | COc1ccc2sc(NC(C)=O)nc2c1
>57 | i | Cn1c(N)c(C(=O)c2cc(-c3ccccn3)nc3ccccc23)c(=O)[nH]c1=O
>57 | i | c1ccn2c(SCc3ccc4c(c3)OCO4)nnc2c1
>57 | i | CCNC(=O)c1nc[nH]c1C(=O)NCC
>57 | i | Cc1cc(=O)[nH]c(SCc2cc(Cl)ccc2OC(F)F)n1

Shown with values under each structure: entries from further up
Order of results: PK Bst | TsaE inh
Cc1ccc(-c2nnc3c4ccccc4c(C)nn23)cc1NC(=O)c1ccco1
→ >57 | i
COc1ccc(C2C(C(=O)Nc3ccccc3)=C(C)Nc3nc(CCCO)nn32)cc1 (centres undefined)
→ >57 | i
NC(CC(=O)OC1CCCCC1)C(=O)OC1CCCCC1 (centres undefined)
→ >57 | i

(further entries)
PK Bst | TsaE inh | Molecule
>57 | i | Cc1cc(C)n(-c2ccc(C(=O)Oc3ccc4c(c3)OCO4)cc2)n1
>57 | i | Cc1nn(-c2ccccc2)c(Oc2ccc(F)cc2)c1/C=N/n1cnnc1
>57 | i | c1nc(N2CCOCC2)c2sc3nc(N4CCOCC4)c4c(c3c2n1)CCCC4
>57 | i | COc1ccc(CC(=O)Nc2c3c(nn2-c2cccc(C)c2C)CS(=O)C3)cc1 (centres undefined)
>26 | . | Cc1onc(-c2ccccc2Cl)c1C(=O)N1CCN(c2nc3ccccc3s2)CC1
>57 | i | CCOC(=O)N1CCN(Cc2cc(=O)oc3ccc(Cl)cc23)CC1
. | i | O=C1OCC(Cn2c3ccccc3c3ccccc32)O1 (centres undefined)
>57 | i | COc1cc2c(=O)n(CCCN3CCOCC3)c(=S)[nH]c2c(OC)c1OC
>57 | i | COc1cc2c(cc1OC)C(C(=O)Nc1ccc3c(c1)OCCO3)C(c1cccnc1)N(C)C2=O (centres undefined)
>57 | i | COc1ccc(C(c2nnnn2Cc2cccs2)N2CCN(c3ccccc3)CC2)cc1OC (centres undefined)
>57 | i | COc1cccc(-c2nnc(SCC(=O)OC(C)C)n2Cc2ccco2)c1
>57 | i | COC(=O)c1ccc(COC(=O)c2ccc(-n3cnnn3)cc2)o1
>57 | i | O=C(CCNS(=O)(=O)c1cccc2nsnc12)N1CC(=O)N(CCc2ccccc2)C(=O)C1
>57 | i | CCN1CCN(C(=O)CN(c2ccc(C)cc2)S(C)(=O)=O)CC1
>57 | i | C=CCOc1c(Br)cc(CNn2nnnc2N)cc1OC

Continued (3 carried over from the part before).
PK Bst | TsaE inh | Molecule
>57 | i | O=C(CCNS(=O)(=O)c1cccc2nsnc12)N1CC(=O)N(CCc2ccccc2)C(=O)C1
>57 | i | CCN1CCN(C(=O)CN(c2ccc(C)cc2)S(C)(=O)=O)CC1
>57 | i | C=CCOc1c(Br)cc(CNn2nnnc2N)cc1OC
>57 | i | O=C(O)c1cccc(S(=O)(=O)N2CCSCC2)c1
>26 | . | O=C(O)CCCC(=O)Nc1ccn(-c2ccccc2)n1
. | i | COc1ccccc1-n1c(SC)nc(O)cc1=O
>57 | ? | CCCCCCn1c(-c2ccco2)nc2oc3cc(OC)ccc3c(=O)c2c1=O
. | i | c1ccc(Nc2nc(-c3ccc4c(c3)OCO4)nc3ccccc23)cc1

Assay outcomes deposited in PubChem BioAssay by National Center for Advancing Translational Sciences (NCATS).

This is a subset; the hit share may differ from the screen's.
